Screening results (PubChem)
Marburg entry inh: Marburg virus entry inhibition | Marburg virus pseudotyped entry inhibition, cell reporter; control for the full effect not named in the record; about a third of the inactives were read at about 46 µM | Potency, µM (doses to about 37.8 µM), for inactives: at the highest dose activity change, negative = inhibition, actives largely listed as inhibitors | 1.8% of 300,000 active | AID 540276; active = well fitted inhibition curve with a large enough effect; inconclusive = small, poorly fitted or top-dose-only effect, or effect the other way; inactive = flat fitted curve, though single readings scatter; tested in HEK293 cells; about a fifth of its hits are not listed in these tables; note: % is set by controls: 0 for no effect and ±100 for the full control effect; luciferase read-out
Cruzain inh noDet: cruzain (T. cruzi) inhibition without detergent | P25779 | purified cruzain, Z-FR-AMC fluorescence, no detergent | Potency, µM, for the others: max response, negative = inhibition, hits mostly inhibitors | 2.3% of 200,000 active | AID 1476;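 note: plate controls were enzyme without inhibitor for no effect and buffer without enzyme for full effect; nearly all actives have a fitted effect of over 40% in size; top concentration of the series not given in the record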
Target sequence (P25779 123-467 limits assumed): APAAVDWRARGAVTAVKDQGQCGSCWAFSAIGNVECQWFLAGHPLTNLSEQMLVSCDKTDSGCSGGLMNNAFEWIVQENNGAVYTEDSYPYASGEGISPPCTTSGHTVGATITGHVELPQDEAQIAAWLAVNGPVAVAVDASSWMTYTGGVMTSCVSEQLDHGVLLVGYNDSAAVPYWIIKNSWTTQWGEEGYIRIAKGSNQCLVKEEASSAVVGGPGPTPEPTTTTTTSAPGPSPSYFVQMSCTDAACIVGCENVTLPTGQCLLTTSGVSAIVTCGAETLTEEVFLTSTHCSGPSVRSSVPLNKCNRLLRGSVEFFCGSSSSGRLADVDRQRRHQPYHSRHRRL
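Detergent-free condition (0.00005% Triton X-100) in acetate buffer pH 5.5 with DTT. 1.5 nM enzyme and compound were pre-mixed 15 min, then 2 uM Z-FR-AMC substrate added; reaction progress from fluorescence change between first and third reads (60 s).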
NS1 function inh: blocks influenza NS1 protein function; S. cerevisiae slowed by influenza A NS1, growth recovery by OD600; Potency, µM (top dose mostly 46.1 µM), without a hit: at the highest dose activity, positive = more growth; 0.4% of 270,000 active; AID 2326; active means well fitted rising curve with a large enough effect; inconclusive means small, poorly fitted or top-dose-only effect; inactive means no such curve, though single readings can be large or run the other way; note: nearly all actives have a fitted effect of over 50% in size
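Growth recovery, yeast-based: influenza A NS1 expressed in S. cerevisiae causes slow growth, and suppressors are detected by OD600. The parent strain without NS1 is used as positive control.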
RE007 growth inh: less growth of the S. pombe RE007 Vpr strain; S. pombe RE007 Vpr strain, BacTiter-Glo ATP luminescence, 24 h; control for the full effect not named in the record; Potency, µM (doses to about 92.2 µM), for inactives: top-dose activity change, negative = less growth; 0.21% of 360,000 active; AID 651644; active = well fitted falling curve with a large enough effect; inconclusive = small, poorly fitted or top-dose-only effect; inactive = no such curve, though single readings can be large or run the other way;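 note: % is set by controls: 0 for no effect and ±100 for the full control effect; nearly all actives have a fitted effect of over 50% in size; the assay follows cell death caused by Vpr and the record does not say whether a fall means rescue or toxicity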
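Fission yeast RE007 carrying one integrated HIV-1 vpr copy, seeded at OD 0.01 in PMG+AL medium with 23 nL pinned compound. Grown 24 h at 30 degrees; viability read by BacTiter-Glo luminescence after 5 min.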
LASV entry inh: blocks Lassa virus binding to or entry into cells; Lassa virus pseudotype entry inhibition, cell reporter; control for the full effect not named in the record; Potency, µM (doses to about 37.9 µM), without a hit: at the highest dose activity change, negative = inhibition, most hits filed as inhibitors; 1.2% of 300,000 active; active means well fitted inhibition curve with a large enough effect; inconclusive means small, poorly fitted or top-dose-only effect, or effect the other way; inactive means flat fitted curve, though single readings scatter; tested in HEK293 cells; note: % is set by controls: 0 for no effect and ±100 for the full control effect; nearly all actives have a fitted effect of over 50% in size; luciferase read-out
2A StopGo: lowers the luciferase signal of an FMDV 2A StopGo reporter; 1.2% of 410,000 active; human cells with a luciferase reporter of 2A StopGo recoding; control for the full effect not named in the record; Potency, µM (titrated, usually from 57.9 µM), for the others: at the highest dose signal change, negative = less light; active = well fitted falling curve with a large enough effect; inconclusive = small, poorly fitted or top-dose-only effect; inactive = no such curve, though single readings can be large or run the other way; tested in HEK293T cells; note: % is set by controls: 0 for no effect and ±100 for the full control effect; nearly all actives have a fitted effect of over 45% in size; luciferase light after 4 h
SARS PLpro yeast: SARS-CoV PLP inhibition in yeast | AID 485353 | Potency, µM (titrated, usually from 32.9 µM), for the others: at the highest dose activity, positive = growth rescue | 0.19% of 330,000 active | S. cerevisiae expressing SARS-CoV PLpro, growth rescue; control for the full effect not named in the record; active means well fitted rising curve with a large enough effect; inconclusive means small, poorly fitted or top-dose-only effect; inactive means no such curve, though single readings can be large or run the other way; note: 0% is about no effect; nearly all actives have a fitted effect of over 55% in size; growth read by luminescence after 48 h
Cruzain Triton: cruzain (T. cruzi) inhibition with detergent | P25779 | purified cruzain, Z-FR-AMC fluorescence, 0.01% Triton | Potency, µM, for the others: max response, negative = inhibition, usual class: inhibitors | 0.43% of 200,000 active | AID 1478;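 note: plate controls were neutral wells for no effect and buffer without enzyme for full effect; nearly all actives have a fitted effect of over 40% in size; top concentration of the series not given in the record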
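Purified cruzain (1.5 nM final) was preincubated with compounds for 15 min at room temperature in 100 mM sodium acetate pH 5.5, 5 mM DTT, 0.01% Triton X-100. Reaction started with 2 uM Z-FR-AMC; AMC fluorescence change over 60 s gave activity.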
* hit, by the source's call; ? = inconclusive; nt = not tested or not shown; & = joins results of further samples; [ ] = dose if it differs, or a comment. Unless noted, calls come from the whole dose curve; as a rule, active = well fitted curve in the direction sought with a large enough effect; inconclusive = small, poorly fitted or top-dose-only effect, or another doubt; inactive = no such curve, though single readings can be large; an effect the other way counts as inactive or inconclusive. Potency is the fitted concentration of half-maximal effect. Not a hit list. About 4.6% of those tested had a hit in this group.

SMILES	Marburg entry inh	Cruzain inh noDet	NS1 function inh	RE007 growth inh	LASV entry inh	2A StopGo	SARS PLpro yeast	Cruzain Triton
CC(C)NC(=O)c1sc2ncccc2c1-n1cccc1	nt	-11%	nt	nt	?	21%	nt	1.2%
CCc1nnc(NC(=O)CSc2ncc(-c3ccccc3)n2C)s1	?	-2%	nt	-2%	-2%	3%	5%	0.3%
CC(=O)c1ccc(OCC(=O)N(CCC2=CCCCC2)c2c(N)n(Cc3ccccc3)c(=O)[nH]c2=O)cc1	?	nt	nt	-16%	-16%	9%	6%	nt
O=C(CSc1nnc(CNc2ccc(F)cc2)n1Cc1ccccc1)NCc1ccco1	10%&10%	?	-4%	5%	1%	5%	2%	-0.6%
Brc1ccc(-c2nc(N/N=C/c3cccnc3)c3ccccc3n2)cc1	?	-6%	18%	-16%	-12%	?	-39%	-7.9%
COc1ccc(C2/C(=C(/O)c3ccc4c(c3)CC(C)O4)C(=O)C(=O)N2CCCn2ccnc2)cc1 (stereo not drawn)	28%[46.1 µM]	nt	-15%	-2%	20%[46.1 µM]	8%	3%	nt
CC(=O)Nc1ccc(NS(=O)(=O)c2ccc3c(c2)n(C)c(=O)n3C)cc1	19%	nt	-11%	3%	?	11%	?	nt
O=C(Cn1c(CC(=O)N2CCCC2)nc2ccccc21)NCc1ccccc1	9%	-3%	7%	-6%	-20%	-13%	7%	-0.2%
CS(=O)(=O)c1ccc(C(=O)OCC(=O)NNC(=O)COc2ccc(Cl)cc2)cc1	-20%	nt	nt	6%	3%	-8%	13%	nt
Cc1ccc(C(=O)Nc2nc(-c3ccc([N+](=O)[O-])cc3)cs2)o1	-4%	-7%	8%	-5%	0%	0%	-12%	-5.3%
O=C1NC(=O)N(Cc2ccccc2)C(=O)C1Cc1ccccc1 (stereo not drawn)	?	nt	nt	10%	-9%	-12%	nt	nt
Cc1cccc2[nH]c3c(N4CC=C(c5ccc(F)cc5)CC4)ncnc3c12	11µM*	nt	-44%	16%	?	40µM*	-5%	nt
COc1ccc(OC)c(NC(=O)CNC(=O)Cn2cnc3sc(C)cc3c2=O)c1	nt	nt	-2%	-2%	nt	0%	0%	nt
Clc1cccc(Cl)c1CO/N=C/c1c(-c2ccccc2)nc2n1CCS2	21µM*	?	?	4%[3.69 µM]	?	-6%	-2%	-7.0%
CC(c1ccccc1F)n1cc(C(=O)NCCc2ccco2)nn1 (stereo not drawn)	-26%	6%	-5%	-17%	?	13%	-4%	2.9%
CCOC(=O)c1csc(NC(=O)CSc2nnnn2-c2ccc(OC)cc2)n1	5%	-4%	-5%	-7%	-14%	nt	2%	0.4%
CCCCc1ccc(NC(=O)CSc2nc3ncccc3[nH]2)cc1	nt	nt	6%	10%	nt	-7%	4%	nt
COc1ccc(C(=O)c2ccc(N(C)C)cc2)c(OC)c1	?	1%	-10%	5%	-28%	13%	5%	-9.2%
COc1cccc(N2CCN(C(=O)CCC(=O)N3CCOc4ccc(C)cc43)CC2)c1	nt	nt	-12%	-21%	nt	-25%	-3%	nt
CC1CCCN(C(=O)Cn2c(=O)oc3cc(S(=O)(=O)N4CCCCC4)ccc32)C1 (stereo not drawn)	8%[46.1 µM]	-8%	6%	-7%	nt	-20%&-16%	4%	1.0%
CCOC(=O)c1c(NC(=O)CCCOc2ccc(C(C)(C)C)cc2)sc2c1CCCC2	nt	-8%	nt	nt	19%[46.1 µM]	-11%	nt	-0.3%
O=C(CCc1nc2ccccc2c(=O)[nH]1)Nc1nnc(SCc2ccccc2F)s1	?	nt	nt	44%	12%	12%	-9%	nt
CC(=O)Nc1ccc(S(=O)(=O)N2CCSC2C(=O)O)cc1 (stereo not drawn)	4%	3%	5%	-3%	5%	nt	5%	8.5%
CCC(=O)N(C1=C(NC(C)C)C(=O)c2ccccc2C1=O)C(C)C	nt	nt	-2%	-3%	nt	?	-1%	nt
CCCOc1cccc(C(=O)Nc2ccc3c(c2)OCCO3)c1	nt	nt	-13%	0%	nt	-4%	-13%	nt
Cc1cccn2c(=O)c(C=Nc3ccccc3)c(NCc3ccco3)nc12	-3%	-2%	-87%	9%	5%	nt	-2%	-2.3%
O=c1[nH]c(=O)n(CCC2=CCCCC2)c(O)c1C=NC1CCN(Cc2ccccc2)CC1	?	7%	5%	-24%	?	?	-6%	-1.6%
CC(C)COC(=O)c1cc(=O)[nH]c2ccccc12	?	0%	-7%	-9%	5%	10%	-7%	-1.8%
Cc1cc(C)n2c(Nc3c(C)cccc3C)c(-c3ccsc3)nc2n1	-7%[46.1 µM]	-14%	nt	nt	5%[46.1 µM]	-19%	nt	0.2%
CC1=Nn2c(nnc2-c2ccco2)SC1	1%	0%	2%	8%	20%	-16%	6%	5.2%
CC12CCC(C(=O)Nc3ccncc3)(CC1O)C2(C)C (stereo not drawn)	nt	nt	-1%	11%	nt	-11%	-3%	nt
NC(=Nc1ccccc1)NN=Cc1c[nH]c2ccccc12	?	nt	nt	20%	-20%	?	nt	nt
O=C(CNS(=O)(=O)c1ccc(Br)cc1)NCc1cccnc1	-6%	nt	-6%	-8%	10%	0%	26%	nt
O=C(COc1ccc(-c2nnco2)cc1)N1CCN(S(=O)(=O)c2ccc3ccccc3c2)CC1	-2%&-2%	7%	3%	-8%	?	?	2%	5.2%
CCOc1cccc(CC(=O)NCc2ccc3c(c2)CCN3C(=O)c2ccc(F)cc2)c1OCC	nt	?	nt	nt	0%[46.1 µM]	-9%	nt	2.2%
COc1nc(C)ccc1-c1noc(-c2ccco2)n1	-13%	-5%	2%	-24%	-38%[14.3 µM]	-12%	-1%	-0.9%
O=C(NCc1ccccn1)C1CCN(S(=O)(=O)N2CCC3(CC2)OCCO3)CC1	11%&15%	-9%	0%	6%	-5%&-15%	-25%	-4%	3.5%
CC1CCCN(C(=O)Cn2c3ccccc3c3nc4n(c(=O)c32)CCS4)C1 (stereo not drawn)	24%[46.1 µM]	nt	5%	35%	nt	-23%	3%	nt
Cc1cccc(Nc2ncnc3onc(-c4cccc(Cl)c4)c23)c1C	nt	nt	-52%	-8%	nt	?	-9%	nt
CSc1ccc(CN2CCCC(N3CCN(c4ccccc4)CC3)C2)cc1 (stereo not drawn)	nt	nt	-8%	3%	nt	?	-2%	nt
O=C(c1cccc(Br)c1)N1CCN(C(=O)N2CCCCC2)CC1	10%	-3%	11%	1%	0%	nt	-1%	1.4%
O=C(Nc1ccccc1)c1cc([N+](=O)[O-])ccc1N1CCCCC1	?	nt	nt	-9%	?	0%	-4%	nt
Cc1ccc(C)c(NC(=O)CN(C)S(=O)(=O)c2cccc3nsnc23)c1	-13%[46.1 µM]	1%	nt	nt	5%[46.1 µM]	-13%	nt	-5.3%
C=CCN1C(=O)S/C(=C/c2ccsc2)C1=O	10%	-7%	6%	-18%	3%	30%	-4%	-6.7%
O=C(NCCS(=O)(=O)N1CCCCCC1)c1ccc(F)cc1	2%[46.1 µM]	nt	nt	-16%	-9%	-6%	2%	nt
CCC1Sc2ccc(S(=O)(=O)CCC(=O)N3CCc4ccccc43)cc2NC1=O (stereo not drawn)	-17%[46.1 µM]	nt	9%	9%	-17%[46.1 µM]	4%	3%	nt
COc1cc(CN=Cc2c(O)n(C(C)(C)C)c(=O)[nH]c2=O)cc(OC)c1	?	nt	-5%	3%	?	?	0%	nt
O=c1cc(CN2CCN(c3ccccc3)CC2)nc2scc(-c3ccccc3)n12	0%[46.1 µM]	nt	4%	-5%	?	-25%	-2%	nt
Cc1ccc(CNC(=O)CCN2C(=O)COc3ccc(C)cc32)cc1	2%[46.1 µM]	-18%	nt	nt	15%[46.1 µM]	-11%	nt	-2.3%
CCOC(=O)C1CCCN(c2c(N3CCN(C4CCCCC4)CC3)c(=O)c2=O)C1 (stereo not drawn)	nt	-11%	1%	-2%	nt	5%	-8%	-3.6%

Following part.
SMILES	Marburg entry inh	Cruzain inh noDet	NS1 function inh	RE007 growth inh	LASV entry inh	2A StopGo	SARS PLpro yeast	Cruzain Triton
COc1ccc(N2CCN(c3cc(=O)n(Cc4ccc(F)cc4)c(=O)[nH]3)CC2)cc1	0%	-14%	8%	-11%	nt	-27%	1%	-2.8%
CCN(CC(=O)Nc1ccc(NC(C)=O)cc1)C(=O)c1cc(-c2ccccc2)nn1-c1ccccc1	-9%	nt	nt	2%	-26%	-10%	0%	nt
O=C(O)c1cc(S(=O)(=O)Nc2ccc(N3CCCCC3)cc2)ccc1Cl	10%[46.1 µM]	nt	nt	-2%	-8%	-8%	-1%	nt
COCc1nc2oc3ccc(F)cc3c(=O)c2cc1C(=O)OC	?	nt	-1%	3%	18%	65%[activator]	2%	nt
Cc1ccc(NC(=O)CSc2n[nH]c(C)c2[N+](=O)[O-])cc1C	2%	?	2%	4%	7%	-12%	-25%	1.4%
Cc1ccc2c(c1)c(=O)c1ccccc1n2CCCC(=O)Nc1ccc(Cl)c(Cl)c1	nt	-12%	nt	nt	-11%[46.1 µM]	0%	nt	-1.7%
COC(=O)c1[nH]c2c(c1C)C(=O)CC(c1cccs1)C2 (stereo not drawn)	?	-17%	-5%	16%	?	-4%	-2%	-2.5%
CCCS(=O)(=O)N1CCC(C(=O)NCc2ccccc2Cl)CC1	15%	-1%	6%	2%	1%	27%	-3%	0.8%
COc1ccc(OC)c(NC(=O)c2ccc(CSc3nnc(C)s3)cc2)c1	6%[46.1 µM]	nt	-14%	-3%	-11%	0%	-1%	nt
COc1ccc(/C=C/C(=O)NC(=S)NCC2CCCO2)cc1 (stereo not drawn)	-1%[46.1 µM]	nt	nt	0%	?	-8%	3%	nt
Cc1cc(C)cc(Nc2nc3ccccc3c(=O)[nH]2)c1	?	nt	nt	-10%	4%	3%	-1%	nt
